Screening results deposited in PubChem BioAssay by Center for Chemical Genomics, University of Michigan.
CDC25B CDK2 inh = human CDC25B-CDK2/CyclinA binding inhibition; P30305+P24941; HTRF CDC25B-CDK2/CyclinA binding, anti-His/anti-Flag; hits give high values; z-score (no concentration beside the values); 0.72% of 94,000 active;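 note: score is relative to mean and SD of negative controls; strong numbers were not always called active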
HIV TAR-Tat = HIV-1 TAR-Tat binding disruption; HIV-1 TAR RNA, Tat peptide displacement FRET; hits give high values; z-score (concentration not given with the values); 0.6% of 100,000 active; AID 1259389;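 note: score is relative to mean and SD of negative controls; some compounds called inactive have numbers as strong as hits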
An asterisk follows results filed as active; . = not tested or not shown.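 Rule for the calls: active = z-score from 3 up in half or more of its runs; inactive = the rest.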 Rows were taken by chance; about 0.87% have a hit in one of these screens.

SMILES	CDC25B CDK2 inh	HIV TAR-Tat
Cc1csc2c(Sc3ccccc3NC(=O)CN3CC(C)OC(C)C3)ncnc12 (centres undefined)	-2.1	.
COCCNC(=O)C(=O)NCc1n[nH]c(=O)c2ccccc12	.	1.4
Cc1cc2ncc(N=Nc3ccc(Cl)cc3)c(-c3cccs3)n2n1	-1.5	.
CCS(=O)(=O)c1nc(S(=O)(=O)c2ccc(Cl)cc2)c(NCc2cccnc2)s1	-0.75	0.23
CCC(=O)N1CCc2cc(S(=O)(=O)NC(C(=O)NC3CCCCCC3)C(C)C)ccc21 (centres undefined)	-1.7	.
COc1cccc(C2CC(=O)N3CN(c4ccc(Br)cc4)CSC3=C2C#N)c1 (centres undefined)	7.4*	-2.7
COc1ccc(-c2nc(NC3CC3)c3ccccc3n2)cc1	.	1
COC(=O)C1C2C=CC3(CN(c4ccc(Cl)c(F)c4)C(=O)C13)O2 (centres undefined)	-0.57	0.26
CC1CCCC(NC(=O)C2CCCN(S(=O)(=O)N3CCCCC3)C2)C1C (centres undefined)	.	4.4
O=C(Cn1c(=O)n(C2CCCCC2)c(=O)c2cccnc21)Nc1ccc(Br)cc1	-0.25	0.01
O=C(CSc1nc2c(c(=O)[nH]1)CCC2)Nc1ccc(Oc2ccccc2)cc1	-0.62	2.2
Cc1ccc2oc(-c3ccc(C)c(N=C/C=C/c4cccc([N+](=O)[O-])c4)c3)nc2c1	-1	.

The final 5 compounds of the part before are carried over, then new ones follow.
SMILES	CDC25B CDK2 inh	HIV TAR-Tat
COC(=O)C1C2C=CC3(CN(c4ccc(Cl)c(F)c4)C(=O)C13)O2 (centres undefined)	-0.57	0.26
CC1CCCC(NC(=O)C2CCCN(S(=O)(=O)N3CCCCC3)C2)C1C (centres undefined)	.	4.4
O=C(Cn1c(=O)n(C2CCCCC2)c(=O)c2cccnc21)Nc1ccc(Br)cc1	-0.25	0.01
O=C(CSc1nc2c(c(=O)[nH]1)CCC2)Nc1ccc(Oc2ccccc2)cc1	-0.62	2.2
Cc1ccc2oc(-c3ccc(C)c(N=C/C=C/c4cccc([N+](=O)[O-])c4)c3)nc2c1	-1	.
Cc1cc(N)n(-c2ccc(F)cc2)n1	-1.6	1.6
COc1ccc(NC(=O)Nc2cn(C)c(=O)c3ccccc23)cc1OC	.	1.4
Cn1ncc(C#N)c1-n1cccc1	-1.7	.
Cc1cc(NC(=O)c2nn(-c3ccc(Cl)cc3)c(=O)n(C)c2=O)no1	.	0.53
CCOc1cc(S(=O)(=O)Nc2cccnc2)ccc1Cl	-0.39	-0.26
Cc1c(NC(=O)Nc2ccc3c(c2)OCO3)c(=O)n(-c2ccccc2)n1C	0.12	0.66
CCC1CCCCN1CCCNC(=O)c1csc2c1CCCCC2 (centres undefined)	-1.4	-0.2
O=c1c2ccc(Cl)cc2[nH]c(=S)n1Cc1ccco1	-2.1	.
COc1ccc(/C=C/c2nn3c(C(C)C)nnc3s2)cc1	-0.45	1.1
Cc1ccccc1CSC1=NCCN1C(=O)c1cc2ccccc2o1	-0.12	.
CCOC(=O)c1cc(S(=O)(=O)NCc2ccco2)[nH]n1	.	1.5
Cc1ccc(CNc2ncc3c(=O)[nH]ccc3n2)cc1	-0.99	-0.06
Cc1ccc(C)c(NC(=O)Cn2nnc(S(=O)(=O)c3ccc(C)c(C)c3)c2N)c1	-1.6	.
CCOc1c(Nc2cccc3c2CCCC3)c(=O)c1=O	.	-1.1
O=C1/C(=C/c2cccs2)CN(Cc2ccccc2)C/C1=C\c1cccs1	-1.4	.
CN(C)CCN(Cc1ccco1)C(=O)c1oc2ccccc2c1NC(=O)c1cccc(F)c1	.	3.2
Cc1ccc(C2CC(c3cccs3)n3nc(N)nc3N2)cc1 (centres undefined)	-1.2	.
CCCN1C(C(=O)c2ccccc2)=C(OC(=O)c2ccc(C)cc2)c2ccccc2S1(=O)=O	-1.2	-0.82
O=C(c1ccccc1O)N1N=C(c2cccc(Br)c2)CC1(O)C(F)(F)F (centres undefined)	-1	.
CC1=C(c2ccc(C(C)C)cc2)S(=O)(=O)N=C1Nc1cc(F)ccc1F	-6.1	-4.6
CC(C)(C)c1ccc(C(=O)Nc2ccc(NC(=O)c3ccc(Br)o3)cc2)cc1	-1.5	.
O=C(O)c1ccc2c(c1)nnn2Cc1ccccc1	.	0.62
COc1ccccc1/C=N/NC(=O)c1cc(C23CC4CC(CC(C4)C2)C3)[nH]n1	-1.5	.
NC(=O)CN1C(=O)C(O)(CC(=O)c2ccncc2)c2ccccc21 (centres undefined)	-0.74	4.5

Reprinted at random: seven records from the list, in no set order.
SMILES	CDC25B CDK2 inh	HIV TAR-Tat
CCCN1C(C(=O)c2ccccc2)=C(OC(=O)c2ccc(C)cc2)c2ccccc2S1(=O)=O	-1.2	-0.82
Cc1ccc(C2CC(c3cccs3)n3nc(N)nc3N2)cc1 (centres undefined)	-1.2	.
CC1=C(c2ccc(C(C)C)cc2)S(=O)(=O)N=C1Nc1cc(F)ccc1F	-6.1	-4.6
CCOc1c(Nc2cccc3c2CCCC3)c(=O)c1=O	.	-1.1
COc1ccccc1/C=N/NC(=O)c1cc(C23CC4CC(CC(C4)C2)C3)[nH]n1	-1.5	.
O=C1/C(=C/c2cccs2)CN(Cc2ccccc2)C/C1=C\c1cccs1	-1.4	.
CN(C)CCN(Cc1ccco1)C(=O)c1oc2ccccc2c1NC(=O)c1cccc(F)c1	.	3.2

Following part:
SMILES	CDC25B CDK2 inh	HIV TAR-Tat
COC(=O)c1ccc(Nc2nc(=O)c3cccnc3s2)cc1	6.9	-0.43
Cn1c(=O)c2c(-c3cccc(Br)c3)n(-c3ccc4c(c3)OCO4)cc2n(C)c1=O	-0.34	0.38
COc1cccc(-c2nc(=S)c3c([nH]2)Oc2ccccc2C3)c1	-3.2	-2.8
N#CC1=C2SCC(O)(c3ccccc3)N2C(=O)CC1c1ccccc1Cl (centres undefined)	-2.5	.
O=C(Cn1ccc2cc(S(=O)(=O)N3CCCC3)ccc21)NCc1ccco1	.	-0.13
COc1ccc(Nc2cc(-n3nc(C)cc3C)ncn2)cc1Cl	-1.2	-0.58
Cc1[nH]c2ccccc2c1C(=O)C(=O)NCCn1ccc2ccccc21	-1.6	0.92
O=C(C1=Cc2sc3c(c2CS1)CCCC3)N1CCN(C2CCCCC2)CC1	.	-4.8
COc1ccc(-n2c(SCC(N)=O)nc3c(c2=O)SCC3)cc1	-0.53	-3.2
O=C1N(Cc2ccc(Cl)cc2)C2CS(=O)(=O)CC2N1c1ccccc1 (centres undefined)	1.1	1.6
O=C(OCc1cc(=O)n2nc(C3CCCCC3)sc2n1)c1ccc(Br)cc1	.	0.91
Cn1cnc2cc(-c3noc(CNC(=O)Cc4ccc(Cl)cc4)n3)ccc21	.	2.5
NC1=NC(c2ccc(F)cc2)n2c(nc3ccccc32)N1 (centres undefined)	-0.23	0.26
COc1ccc(CN2CCN(C3CCCC3)CC2)cc1OCc1ccccc1	-0.37	0.68
Cc1ccc(C2Nn3c(C)nnc3SC2C(=O)NCc2ccco2)cc1 (centres undefined)	0.94	0.11
CCOC(=O)N1CCN(S(=O)(=O)c2cc3[nH]c4c(c3cc2CC)C(=O)CC(C)(C)C4)CC1	.	0.79
CC1=C(C(=O)Nc2ccc(Cl)cc2C(=O)N2CCOCC2)SCCO1	.	0.07
O=C1c2cccc3c([N+](=O)[O-])ccc(c23)C(=O)N1NCCO	-4.2	.
O=C(Cn1c(=O)oc2cc(S(=O)(=O)N3CCCC3)ccc21)NC1CCCc2ccccc21 (centres undefined)	-2.1	.
CCN(C1=NC2CS(=O)(=O)CC2S1)c1ccc(OC)cc1 (centres undefined)	-1.7	1.1
CC1(C)Cc2cc3c(cc2C(c2ccccc2)=N1)OCCO3	-0.36	.
N#C/C(=C\c1c(Cl)cccc1Cl)S(=O)(=O)c1cccs1	-1.2	.
CCCS(=O)(=O)N1CCc2cc3cccc(C)c3nc21	-1.1	-2.7
COc1ccc(C2=NNC(O)(C(F)(F)F)C2)cc1 (centres undefined)	0.96	.
COc1cc(CNC(=O)CCCCCCC(C)C)ccc1O	-0.29	1.5
Cc1cc(C)c(-c2n[nH]c3c2C(c2ccccc2F)N(CCCO)C3=O)c(O)c1 (centres undefined)	0.57	0.75
Cc1ccc2c(c1)N(Cc1ccc(F)cc1)C=NS2(=O)=O	.	1.4
CSc1nnc2c(n1)OC(c1ccc(OCC(=O)O)cc1)Nc1ccccc1-2 (centres undefined)	0.88	-0.85
Cc1nc2ncnn2c(C)c1CCC(=O)Nc1ccc(F)c(Cl)c1	0.65	.
COc1cc(-c2nc3ccccc3c(=O)o2)ccc1OC(C)=O	0.66	0.32
CCc1ccc(N2Cc3ccncc3C2=O)cc1	-2.2	-0.08
Cc1c(C(=O)Nc2sc3c(c2C(=O)NCc2ccco2)CCCC3)oc2ccccc12	-1.9	.
CCCNC(=O)Nc1ccc2c(c1)oc(=O)n2CC	.	0.43
COc1cccc2c1OC(C(C)C)N1N=C(c3cc(Cl)ccc3O)CC21 (centres undefined)	3.1	0.29
CCc1ccc(C2CC(=O)Nc3nc(N)[nH]c(=O)c32)cc1 (centres undefined)	-2.6	0.98
CC1Cc2ccccc2N1C(=O)c1cccc(N2C(=O)CCS2(=O)=O)c1 (centres undefined)	-1.6	0.96
CCCSc1nc2c(c(=O)[nH]1)C(c1cccc(F)c1)C(C(=O)OCC)=C(C)N2 (centres undefined)	-2.5	-0.77
CSc1cccc(NC(=O)CSc2nc3ncccc3o2)c1	.	-0.22
COc1ccc(NS(=O)(=O)c2cccs2)cc1	-1.3	-0.65
Cc1nn(CC(=O)N2CCN(c3ncccn3)CC2)c(=O)c2cc3sccc3n12	-1.5	1.2
O=C(N/N=C/c1c(Cl)cccc1Cl)C(=O)Nc1ccc(F)cc1	-1.2	.
CCOc1ccc(-n2nc3cc(C)c(N)cc3n2)cc1	0.69	-0.23
Cc1ccc(S(=O)(=O)c2nnn3c2nc(NCC2CCCO2)c2cc(Cl)ccc23)cc1C (centres undefined)	-0.24	0.53
CCOC(=O)N1CCC(Nc2nc3ccccc3n3nnnc23)CC1	-0.02	-4.8
CCn1c(=O)c2sccc2n2c(CCCC(=O)N3CCC(C(N)=O)CC3)nnc12	.	0.37
CS(=O)(=O)CCC(C(=O)N1CCc2ccccc2C1)N1Cc2ccccc2C1=O (centres undefined)	.	0.36
COC(=O)C1C(=O)C2=C(CC1C)NC(C)=C(C(=O)OC1CCCCC1)C2c1ccc(N(C)C)cc1 (centres undefined)	-1.1	-1.1
CCN1CCN(c2oc(/C=C/c3ccccc3OC)nc2C#N)CC1	-1.2	-3.2
CN1CCN(c2cc(NCc3ccco3)c3c4c(onc24)-c2ccccc2C3=O)CC1	-0.39	-2
CC1CCN(c2ncnc3nc[nH]c23)CC1	-0.89	.
CCc1cc2c3c([nH]c2cc1S(=O)(=O)NCCCN1CCOCC1)CC(C)(C)CC3=O	.	2.4
CC1CSc2ccc(S(=O)(=O)NCCN3CCc4ccccc4C3)cc2NC1=O (centres undefined)	.	0.2
Cc1nc(NC(=O)c2nn(-c3ccccc3)ccc2=O)sc1C(=O)OCC(C)C	-0.75	-0.73
O=C1c2cccnc2C(Nc2ccccc2Cl)N1Cc1ccco1 (centres undefined)	.	3.5
CSc1sc(C(=O)NNC(=O)Nc2ccc(Cl)cc2)c2c1C1(CCC2)SCCS1	-1.5	.
O=C(Nc1cc(F)ccc1F)Nc1c[nH]c(=O)[nH]c1=O	.	1.6
OC(CN1CCN(c2ccc(F)cc2)CC1)c1c[nH]c2ccc(F)cc12 (centres undefined)	-1	0.2
COc1ccc(NC(=O)n2ncc3cc(Cl)ccc32)cc1OC	-1.2	1.6
O=C1CC(c2nc3ccccc3n2Cc2ccccc2F)CN1c1ccc(F)cc1 (centres undefined)	-2.9	2.4
Cc1cc(C(=O)NNC(=O)c2cccs2)nn1C(C)(C)C	-2.6	.

(next part)
SMILES	CDC25B CDK2 inh	HIV TAR-Tat
CC(C)OCCCN1C(=O)c2ccc(-c3ccco3)n2CC1(C)C(=O)NC1CCCCC1 (centres undefined)	.	0.03
C=CCn1c(-c2ccccc2)nc2ccccc21	-1.2	1.9
Cc1ccc(Cl)cc1N1CC(O)=C(c2nc3ccccc3n2C)C1=N	1.4	0.48
CCn1c(C(=O)N2CCc3ccccc32)cc2sccc21	-0.8	.
CCc1cc(C(=O)Nc2c(C)n(C)n(-c3ccccc3)c2=O)no1	-2.5	0.18
Cc1ccc2nc(Nc3nc4c(c(=O)[nH]3)CCCC4)nc(C)c2c1	10	0.36
CN(C(=O)Cn1ncc2c([nH]c3ccccc32)c1=O)c1ccccc1F	.	2.1
CS(=O)(=O)CCC(C(=O)Nc1ccc(Br)cn1)N1Cc2ccccc2C1=O (centres undefined)	.	0.6
Cc1nn2c3ccccc3n(CC(=O)c3cccs3)c2nc1=O	-0.97	.
COc1ccc(OC2C(=O)N(Cc3ccc4c(c3)OCO4)C2c2sccc2C)cc1 (centres undefined)	-0.29	0.03
COc1cc2c(cc1OC)CC(C)(C)N(Cc1ccccc1)C2	-2.5	.
CCc1ccc(-n2c(=S)sc3c(=O)[nH]c(SCC(=O)Nc4nccs4)nc32)cc1	.	0
Cc1ccc(-c2nc3c4cnn(-c5ccc(Cl)cc5)c4ncn3n2)cc1	0.48	6.8
Cc1ccc(-c2nnc(NCc3nc4ccccc4[nH]3)c3ccccc23)cc1S(=O)(=O)N(C)C	-15	-0.3
CN(C)CCCNc1oc(/C=C/c2ccc(F)cc2)nc1C#N	-1.4	2.7
COC(=O)CSc1ncc2c(n1)-c1ccccc1N(Cc1cccc(F)c1)S2(=O)=O	.	-1.5
CCOCCCNc1cc(N2CCN(c3ccccn3)CC2)c2noc3c2c1C(=O)c1ccccc1-3	-2.1	-0.96
Cc1csc2nc(CN(C)c3ccccc3)cc(=O)n12	.	4.5*
CCOC(=O)c1nc(N2CCc3ccccc32)c2c(C)noc2n1	.	0.42
